Screens as filed in PubChem BioAssay.
HTT promoter inh: inhibits huntingtin promoter activity. HEK293 HTT promoter firefly luciferase reporter (activity 0% = vehicle and -100% = no light), 24 h. Potency, µM (series often up to 57.5 µM), for the others: at the top dose activity change, negative = inhibition, hits mostly inhibitors. 0.93% of 48,000 active. AID 1508623; active = well fitted inhibition curve with a large enough effect; inconclusive = small, poorly fitted or top-dose-only effect; inactive = no such curve, though single readings can be large or run the other way; also: nearly all actives have a fitted effect of over 50% in size
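HEK293 luciferase promoter-reporter cells (2,500/well) plated 24 h, then compounds added at up to 57.5 uM final for 24 h at 37 °C. Firefly luminescence by Dual-Glo, normalized to vehicle (0%) and zero RLU (-100%).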
PMP22 txn prim: PMP22 gene transcription modulation; S16 Pmp22-F2sN Schwann cells (luciferase reporters placed in the Pmp22 gene), FLuc/NLuc coincidence luminescence, 24 h; Potency, µM (highest dose often 57.5 µM), without a hit: top-dose activity change, negative = inhibition, most hits filed as inhibitors; 2% of 43,000 active; AID 1508649; active = clear falling dose curves in both reporters; inconclusive = both reporters move, but less clearly or upward; inactive = either reporter flat; the % is the NLuc reporter signal; also: % is scaled to controls: 0 for no effect and ±100 for the full control effect; some results filed as inactive show a strong effect at the top dose
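Transcriptional readout in edited S16(c9) cells: two luciferases reported from the Pmp22 locus, measured in turn after 24 h compound incubation.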
* hit, by the source's call; ? = inconclusive; . = no result given; [ ] = another dose, or the depositor's remark. Potency is read from the fitted curve at half-maximal effect.

| SMILES | HTT promoter inh | PMP22 txn prim |
| --- | --- | --- |
| Cc1coc2c(C)c3oc(=O)c(CC(=O)N4CCCCC4)c(C)c3cc12 | -5% | -6% |
| COc1cccc(CNC(=O)Cn2c(C)c3cnn(-c4ccccc4)c(=O)c3c2C)c1 | -12% | 0% |
| COc1ccccc1CNC(=O)c1oc2ccc3c(c2c1C)C(=O)CC(C)(C)O3 | -3% | ? |
| CCC(C)NC(=O)Cn1ncc2c(C)n(Cc3ccc(F)cc3)c(C)c2c1=O (stereo unspecified) | -5% | 11% |
| CCOc1ccc(CCNC(=O)Cn2nc(CC)n3c(cc4sccc43)c2=O)cc1 | -6% | 3% |
| CCCCN(CCCC)CCNC(=O)Cn1nc(C)n2c(cc3sccc32)c1=O | -6% | -31% |
| Cc1ccc(CNC(=O)C2CCN(Cc3nc(-c4ccccc4C)oc3C)CC2)cc1 | -7% | ? |
| O=C(COCc1cc(-c2ccc3c(c2)OCO3)on1)Nc1cccc(O)c1 | -4% | -5% |
| Cc1ccc(C(=O)Nc2cccc(C(F)(F)F)c2)cc1Nc1nc(-c2cccnc2)nc2c1cnn2C | -7% | . |
| Cc1ccc2c(=O)cc(C(=O)Nc3c(C(=O)c4ccccc4)oc4ccccc34)oc2c1 | 4% | -37% |
| CCC(C(=O)N1CCN(c2cc(Cl)ccc2C)CC1)n1nc(C)n2c(cc3occc32)c1=O (stereo unspecified) | ? | ? |
| Cc1cccc(N2CCN(C(=O)C3CCN(S(=O)(=O)c4cccs4)CC3)CC2)c1C | -26% | -51% |
| CCc1ccc(Cn2c(CNS(=O)(=O)c3ccc(C)c(C)c3)nc3cccnc32)cc1 | -6% | -4% |
| O=C(NC1CCCC1)c1ccc2c(c1)N(Cc1c(F)cccc1Cl)C(=O)c1ccccc1S2 | -25% | -11% |
| COc1ccc(C2c3cccn3CCN2S(=O)(=O)c2ccccc2[N+](=O)[O-])cc1OC (stereo unspecified) | -18% | ? |
| CCCCN(CCCNC(=O)c1cc(Nc2ccc(OC)cc2)nc2ccccc12)Cc1ccccc1 | 0% | ? |
| Cc1nn(CCCC(=O)NCCc2ccc(Cl)cc2)c(=O)c2nn(-c3ccccc3)c(C)c12 | -4% | -16% |
| CCOC(=O)COc1ccc(CC)cc1C(=O)c1ccn2nc(-c3ccccc3)cc2n1 | -7% | -22% |
| Cc1nc2ccn(Cc3cccs3)c(=O)c2cc1C(=O)N1CCN(c2ccc(F)cc2)CC1 | ? | -34% |
| Cc1ccccc1Nc1c(-c2cccc(N(C)C)c2)nc2ccc(Br)cn12 | 46%[activator] | -11% |
| CCc1ccc(-c2cc(C)no2)cc1S(=O)(=O)Nc1ccc(Cl)cc1 | ? | ? |
| CCOc1ccc(NC(=O)Cn2c(=O)n(Cc3ccccc3)c(=O)c3sc4ccccc4c32)cc1 | -60% | -25% |
| COc1ccccc1Oc1nc2c(C)cccn2c(=O)c1/C=C(\C#N)c1nc2ccccc2[nH]1 | -10%[11.5 µM] | -25% |
| CCc1ccc(-n2c(=O)c3c4c(sc3n(Cc3cc(=O)n5c(C)cccc5n3)c2=O)CCC4)cc1 | -4% | ? |
| CCCCOc1ccc(CNC(=O)c2cnc3sc(N4CCCCCC4)nn3c2=O)cc1 | 2% | -28% |

Part of the list above in a different format.
Values run as follows: HTT promoter inh	PMP22 txn prim
CCOc1ccc(NC(=O)Cn2c(=O)n(Cc3ccccc3)c(=O)c3sc4ccccc4c32)cc1
    -60%	-25%
COc1ccccc1Oc1nc2c(C)cccn2c(=O)c1/C=C(\C#N)c1nc2ccccc2[nH]1
    -10%[11.5 µM]	-25%

The list goes on:
| SMILES | HTT promoter inh | PMP22 txn prim |
| --- | --- | --- |
| Cc1cc(C)cc(NC(=O)Cn2c(C(F)(F)F)nc3ccccc32)c1 | -20% | 1% |
| O=c1c(-c2ccc(O)cc2)coc2cc(O[C@@H]3O[C@H](CO)[C@H](O)[C@H](O)[C@H]3O)ccc12 | 28% | . |
| COc1cccc(CNC(=O)c2oc3ccc4c(c3c2C)C(=O)CC(C)(C)O4)c1OC | 10% | -48% |
| COc1cc(NS(=O)(=O)c2ccc3c(c2)CC(=O)N3)cc(OC)c1OC | -29% | 4% |
| O=c1c2cc3c(cc2n(Cc2cccc(Cl)c2)c(=O)n1Cc1nc(-c2ccccc2)no1)OCO3 | -11% | -3% |
| Cn1cc(S(=O)(=O)N2CCOCC2)cc1C(=O)Nc1ccc(Cl)c(C(F)(F)F)c1 | ? | ? |
| CCN(CC)CCCNC(=O)c1sc2nc3n(c(=O)c2c1C)CCCCC3 | -5% | -7% |
| CCN1C(=O)C(O)(c2c(C)[nH]c3ccccc23)c2ccccc21 (stereo unspecified) | -7% | 6% |
| COc1ccc(OC)c2sc(N3CCN(C(=O)C4COc5ccccc5O4)CC3)nc12 (stereo unspecified) | 0% | ? |
| CCOc1ccc(N(CC)S(=O)(=O)N2CCCC(C(=O)Nc3ccc(OC)c(OC)c3)C2)cc1 (stereo unspecified) | ? | -22% |
| Cc1cn2c(=O)cc(COc3cccc(NC(=O)c4cccc(F)c4)c3)nc2s1 | -5% | -29% |
| Cc1cc2oc(C(=O)N(Cc3ccccc3F)C3CCS(=O)(=O)C3)c(C)c2cc1Cl (stereo unspecified) | ? | ? |
| Cc1ccc(-c2c(C(=O)N3CCN(c4cccc(C)c4)C(C)C3)oc(=O)c3ccccc23)cc1 (stereo unspecified) | ? | ? |
| Cc1cccc(C(=O)N2CCc3cc(CNC(=O)COc4ccc(Cl)cc4)ccc32)c1 | -26% | -28% |
| COc1ccc(C)cc1NC(=O)NC(C)c1c(-n2cccc2)sc(C)c1C (stereo unspecified) | ? | ? |
| COC(=O)c1ccc(CSc2nc3c([nH]c4ccccc43)c(=O)n2-c2cccc(OC)c2)o1 | ? | -24% |
| NC(=O)Cn1c(=O)n(CCCCCC(=O)NCc2ccccc2)c(=O)c2sccc21 | -10% | -16% |
| COC(=O)c1sccc1S(=O)(=O)N(CC(=O)NCc1ccc(C)cc1)c1ccc(C)c(C)c1 | -1% | -160% |
| Cc1ccc(NC(=O)Cn2nc(C(F)(F)F)c3c2CCCC3)cc1C | ? | ? |
| COc1ccc(Cn2cc(S(=O)(=O)c3ccc(Cl)cc3)c(=O)c3cc4c(cc32)OCO4)cc1 | -28% | 1% |
| CC(C)CC(=O)Nc1nnc(S(=O)(=O)N(C)c2ccc(Cl)cc2)s1 | -17% | -1% |
| COc1ccc2oc(=O)cc(CN3CCN(C(=O)c4ccccc4)CC3)c2c1 | -11% | -16% |
| Cc1c(C(=O)Nc2cc(F)ccc2F)sc2nc(-c3ccc(F)cc3)cn12 | -13% | 4% |
| COC(=O)c1sccc1S(=O)(=O)N(CC(=O)Nc1cc(F)ccc1F)c1ccc(C)c(C)c1 | -28% | ? |
| CCn1c(=O)cc(OCC(=O)Nc2cc(OC)c(OC)c(OC)c2)c2ccccc21 | 9% | -28% |
| CCOC(=O)[C@H](CCc1ccccc1)N[C@@H](C)C(=O)N1[C@@H](C(=O)O)C[C@H]2CCC[C@@H]21 | ? | . |
| Cc1cc(C)cc(NC(=O)c2cc(C)nc3c2c(C)nn3-c2ccccc2)c1 | -8% | -25% |
| COC(=O)CNC(=O)Nc1cc(C(=O)NCc2ccc(C)cc2)ccc1N1CCCC1 | -20% | 45% |
| O=C(c1ccc2c(c1)N(Cc1ccccc1F)C(=O)c1ccccc1S2(=O)=O)N1CCN(c2ccccc2F)CC1 | -6% | ? |
| COc1cccc(-n2ccn(CC(=O)Nc3ccccc3F)c(=O)c2=O)c1 | -7% | -12% |
| O=C(Cc1ccccc1)N(Cc1cccnc1)c1nc2c(Cl)cccc2s1 | ? | ? |
| CCOCCCn1c(SCC(=O)Nc2ccccc2OC)nc2c(oc3ccccc32)c1=O | -24% | ? |
| Cc1ccc(NC(=O)C2CCN(S(=O)(=O)c3c(C)noc3/C=C/c3ccco3)CC2)cc1C | ? | -36% |
| COc1ccc(-c2nc(CSCC(=O)N3CCN(c4cc(Cl)ccc4C)CC3)c(C)o2)cc1 | 13µM* | ? |
| Cc1ccc(-n2ncc3c(N4CCN(Cc5ccccc5)CC4)ncnc32)cc1Cl | -14% | -1% |
| O=C(C=CC=Cc1ccc2c(c1)OCO2)N1CCCCC1 | 23% | . |
| Cc1cc(C)n(-c2nc(C)c(C)c(=O)n2CC(=O)Nc2ccc(OC(F)(F)F)cc2)n1 | -22% | 5% |
| O=C(Cn1ncc2c3ccccc3n(Cc3ccccc3)c2c1=O)NCc1ccccc1 | 18% | -23% |
| O=C1N=C(O)CN1/N=C/c1ccc(-c2ccc([N+](=O)[O-])cc2)o1 | 1% | . |
| Cc1ccc2nc(-c3ccc(C)o3)c(Nc3ccc4c(c3)OCCO4)n2c1 | 34%[activator] | -6% |
| O=C(Nc1ccc(S(=O)(=O)N2CCOCC2)cc1)c1cc(Cl)ccc1NS(=O)(=O)c1ccc(Cl)s1 | -5% | . |
| N#Cc1c[nH]n2c(NC3CCCCC3)c(-c3cccc(Cl)c3)nc12 | 12% | -5% |
| Cc1ccc(NC(=O)c2cc(S(=O)(=O)N3CCCCCC3)ccc2F)cc1F | ? | 17% |
| COC(=O)c1cc2sc(Cl)cc2n1Cc1cc(C)ccc1C | -4% | -29% |
| O=C1c2[nH]nc(-c3ccccc3O)c2C(c2cccc(OCc3ccccc3)c2)N1CCO (stereo unspecified) | -17% | 19% |
| COC(=O)[C@@H]1CC2=CC(=O)CC[C@]2(C)[C@@]23O[C@@H]2C[C@@]2(C)[C@@H](CC[C@@]24CCC(=O)O4)[C@H]13 | 3% | . |
| Cc1ccc2[nH]c(C(=O)Nc3ccccc3)cc2c1 | 23% | -14% |
| O=C(CSc1nccn1-c1ccc(Cl)cc1)Nc1ccc(Cl)c(Cl)c1 | ? | ? |
| Cn1c(=O)n(C)c2cc(CNCc3ccc(F)cc3)ccc21 | -9% | -7% |
| CCc1nn(CC(=O)NCCCN(CC)CC)c(=O)c2cc3sc(C)cc3n12 | -8% | -47% |

Continuation.
| SMILES | HTT promoter inh | PMP22 txn prim |
| --- | --- | --- |
| Cn1nc(-c2ccc(C(=O)Nc3ccc(OC(F)(F)F)cc3)cc2)c2ccccc2c1=O | 10µM* | ? |
| Cc1cc(C)cc(NS(=O)(=O)c2cc3[nH]c(=O)c(=O)[nH]c3cc2C)c1 | -5% | -1% |
| COc1ccc(NC(=O)c2nc(SCc3ccc(F)cc3)ncc2Cl)cc1 | -11% | -15% |
| Cc1cccc(C)c1OCc1cc(=O)n2ccsc2n1 | -4% | -12% |
| COC(=O)c1ccc(NC(=O)C(=O)NCCc2sc(-c3cccc(F)c3)nc2C)cc1 | -12% | ? |
| CN(C)c1ccc(CNC(=O)c2cnc3sc(N4CCCCCC4)nn3c2=O)cc1 | -4% | -21% |
| COc1ccc(-c2cc(C(F)(F)F)n3nc(C(=O)O)c(Cl)c3n2)cc1OC | -6% | -26% |
| C[C@H](O)[C@@H]1C(=O)N2C(C(=O)O)=C(S[C@@H]3CN[C@H](CNS(N)(=O)=O)C3)[C@@H](C)[C@@H]12 | 10% | . |
| CCOC(=O)CSc1nc2ccc(NC(=O)c3ccccc3)cc2s1 | -7% | -22% |
| Cc1ccc(-n2nc(C)c3c(C)c(CCC(=O)NCc4ccc(Cl)cc4)c(C)nc32)cc1 | -17% | ? |
| CCCN1CCN(CCCNC(=O)c2ccc(CS(=O)c3ccc(OC)cc3)o2)CC1 (stereo unspecified) | 16% | -30% |
| COCCNC(=O)c1ccc2c(c1)N(Cc1c(F)cccc1Cl)C(=O)c1ccccc1S2 | -25% | 22% |
| Fc1cc(Br)ccc1Nc1c2c(nc3nc(-c4cccs4)nn13)CCCC2 | ? | ? |
| Cc1cc2c(cc1S(=O)(=O)Nc1cccc(Cl)c1C)n(C)c(=O)c(=O)n2C | -13% | 1% |
| Cc1c(C(=O)N(C)C)sc2c1c(=O)n(-c1ccc(Cl)c(Cl)c1)c(=O)n2CC(=O)N1CCCCC1C (stereo unspecified) | -4% | -22% |
| CCOCCc1nn2c(=O)cc(COC(=O)c3ccc4c(c3)OCO4)nc2s1 | -6% | -12% |
| Cc1ccc(NC(=O)c2c(C)oc3ccc(O)c(CN4CCCCCC4)c23)c(C)c1 | -30% | ? |
| COc1ccc(Cn2nnc(C(=O)Nc3cc(OC)ccc3OC)c2N)cc1 | -5% | 28% |
| O=C(CSc1nc(=O)n(Cc2ccncc2)c2c1CCC2)Nc1cccc(F)c1 | -16% | ? |
| COc1cc(Cl)c(C)cc1NC(=O)c1ccc2c(Cl)c3c(nc2c1)CCC3 | -3% | -6% |
| O=C(NCCn1cc(SCc2ccc(C(F)(F)F)cc2)c2ccccc21)c1ccccc1F | ? | ? |
| O=C(NCc1ccc2c(c1)OCO2)c1ccc2c(c1)N(Cc1ccccc1)C(=O)c1ccccc1S2=O (stereo unspecified) | -7% | ? |
| O=c1[nH]c2ccc(NCc3ccccc3F)cc2[nH]1 | -1% | ? |
| CCOc1ccc(CCNC(=O)c2cccc(Nc3nc4ccccc4nc3-n3nc(C)cc3C)c2)cc1OCC | -9% | -13% |
| CCN1CCN(c2ncc3c(n2)CCN(Cc2ccc(C)s2)C3)CC1 | -15% | -7% |

No new results follow: an excerpt of the list.
| SMILES | HTT promoter inh | PMP22 txn prim |
| --- | --- | --- |
| O=c1[nH]c2ccc(NCc3ccccc3F)cc2[nH]1 | -1% | ? |
| CCOc1ccc(CCNC(=O)c2cccc(Nc3nc4ccccc4nc3-n3nc(C)cc3C)c2)cc1OCC | -9% | -13% |
| CCN1CCN(c2ncc3c(n2)CCN(Cc2ccc(C)s2)C3)CC1 | -15% | -7% |
